Assay outcomes from PubChem.
miR-21 FLuc – miR-21 reporter, rising signal; HeLa miR-21 FLuc reporter, luciferase, 48 h; Potency, µM (top dose mostly 38.3 µM), inactives show at the highest dose reporter change, positive = more light; 340,000 tested, under 10 active; active = well fitted rising curve with a large enough effect; inconclusive = small, poorly fitted or top-dose-only effect; inactive = no such curve, though single readings can be large or run the other way;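 further: % of control where 0% means no effect; miR-21 action dims this reporter so a rising signal means less miR-21 action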
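HeLa cells stably expressing CMV-driven firefly luciferase with a downstream miR-21 binding sequence, endogenously expressing miR-21, were treated with titrations (up to about 40uM final) for 48 hours at 37 degree Celsius. Luciferase luminescence was read after lysis.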
Rango-impB inh – prevents formation of the Rango-importin beta complex; Rango CFP/YFP FRET sensor + importin beta, 45 min; Potency, µM (top dose mostly 92.2 µM), for inactives: at the top dose inhibition of complex formation; 340,000 compounds, 0.031% hits; AID 540263; active = rising FRET ratio curve, often small or poorly fitted; inconclusive = mostly compound fluorescence or quenching in the first reads; inactive = flat curves in all reads;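 further: potency means the concentration at half of the fitted maximal effect; 0% = DMSO wells and 100% = buffer wells lacking importin beta; nearly all actives have a fitted effect of over 15% in size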
Target sequence (Q14974 whole entry, looked up): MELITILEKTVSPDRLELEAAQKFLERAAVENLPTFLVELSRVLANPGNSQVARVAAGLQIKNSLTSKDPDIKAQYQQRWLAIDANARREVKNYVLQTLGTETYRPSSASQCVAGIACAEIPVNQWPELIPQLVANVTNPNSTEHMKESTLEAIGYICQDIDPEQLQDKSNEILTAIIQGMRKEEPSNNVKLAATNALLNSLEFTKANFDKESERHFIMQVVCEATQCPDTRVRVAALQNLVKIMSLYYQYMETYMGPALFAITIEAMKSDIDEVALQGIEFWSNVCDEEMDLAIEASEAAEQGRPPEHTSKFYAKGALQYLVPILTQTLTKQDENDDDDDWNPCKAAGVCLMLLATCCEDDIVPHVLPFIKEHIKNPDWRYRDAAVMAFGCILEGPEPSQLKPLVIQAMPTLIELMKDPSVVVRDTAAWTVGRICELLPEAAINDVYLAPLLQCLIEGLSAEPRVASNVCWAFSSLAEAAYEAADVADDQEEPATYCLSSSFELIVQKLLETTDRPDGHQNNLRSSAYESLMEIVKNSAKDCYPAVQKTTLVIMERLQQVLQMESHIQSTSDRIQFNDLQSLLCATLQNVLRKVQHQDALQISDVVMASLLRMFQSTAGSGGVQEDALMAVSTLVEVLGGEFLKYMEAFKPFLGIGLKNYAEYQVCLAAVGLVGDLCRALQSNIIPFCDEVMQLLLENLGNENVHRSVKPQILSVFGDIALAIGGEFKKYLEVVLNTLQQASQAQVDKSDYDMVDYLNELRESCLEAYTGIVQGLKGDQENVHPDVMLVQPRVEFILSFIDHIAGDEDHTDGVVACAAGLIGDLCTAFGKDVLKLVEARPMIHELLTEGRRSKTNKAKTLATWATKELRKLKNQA
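Inhibition scored from the CFP 486 nm/YFP 530 nm FRET ratio 45 min after adding 0.125 microM importin beta to 50 nM Rango biosensor preincubated 5 min with compound (room temperature, PBS with DTT, Tween-20, BSA). No-importin wells as positive control.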
Rango dissoc inh – prevents RanGTP from dissociating the Rango-importin beta complex; O95149+P62826; Biochemical FRET Rango-importin beta, RanGTP-induced dissociation; Potency, µM (top dose mostly 46.1 µM), inactives show at the top dose activity change, negative = inhibition; 340,000 compounds, 0.071% hits; AID 540253; active means falling FRET ratio curve, often poorly fitted, with flat reads before Ran was added; inconclusive means other falling curves, or compound fluorescence or quenching; inactive means flat or rising ratio curve;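 further: potency means the concentration at half of the fitted maximal effect; % of control where 0% means no effect; nearly all actives have a fitted effect of over 45% in size; -100% = wells without RanGTP and RCC1; the record marks most hits as doubtful in a second field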
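Recombinant Rango FRET biosensor (EYFP–snurportin 1 IBB–cerulean CFP10) at 0.1 uM premixed with 0.25 uM importin beta in PBS, 1 mM DTT, 0.02% Tween-20, 0.1% BSA. Compound added 5 min; RanGTP-RCC1 (0.6 uM Ran, 2 mM GTP, 0.2 uM RCC1) then triggers release, read at 45 min.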
GLA inh pH 4.5 – blocks human alpha-galactosidase A at pH 4.5; 230,000 tested, under 10 active; activity change, negative = inhibition, % at 105 µM; purified enzyme, 4-MU-alpha-Gal fluorescence, pH 4.5; inconclusive = small, poorly fitted or top-dose-only inhibition, or a rising curve; inactive = flat fitted curve, though single readings scatter; no compound was filed as active;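 further: 0% = full activity with enzyme and -100% = basal without enzyme; dose as in the result columns while the protocol names 77 µM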
* = called active by the depositor; & = joins results of further samples. An excerpt; count on the stated rates, not on these rows.

Results for COc1cc(NC(=O)CCS(=O)(=O)c2ccc3c(c2)n(C)c(=O)c(=O)n3C)cc(OC)c1 ?
miR-21 FLuc: 0%&-7%; Rango-impB inh: 0.8%; Rango dissoc inh: 14%

How did Cc1cccc(S(=O)(=O)N(CC(=O)Nc2ccccc2C)Cc2ccco2)c1 do in these assays?
miR-21 FLuc: 3%; Rango-impB inh: -4.6%; Rango dissoc inh: 0%; GLA inh pH 4.5: 4

Results for CCC(C)NC(=O)c1ccc(CSCc2ccc(Cl)cc2)o1 (stereo not given) ?
miR-21 FLuc: -1%; Rango-impB inh: -0.6%; Rango dissoc inh: 0%

Results for Cc1ccc[n+](CC(=O)Nc2ccc([N+](=O)[O-])cc2Cl)c1 ?
miR-21 FLuc: 1%; Rango-impB inh: inconclusive; Rango dissoc inh: inconclusive; GLA inh pH 4.5: 2

How did Cc1c(CCC(=O)O)c(=O)oc2cc3occ(-c4ccccc4)c3cc12 do in these assays?
miR-21 FLuc: 8%; Rango-impB inh: -0.2%; Rango dissoc inh: 8%; GLA inh pH 4.5: 2

How did Cc1cccc(C)c1NC(=O)CSc1n[nH]c(=O)n1C1CC1 do in these assays?
Rango-impB inh: 1.7%; Rango dissoc inh: 2%

Results for CC1CCCC(C)N1C(=O)CSc1nc2ncnc(N)c2[nH]1 (stereo not given) ?
miR-21 FLuc: -27%; Rango-impB inh: -0.6%; Rango dissoc inh: 0%; GLA inh pH 4.5: -4

Results for Nc1nc(-c2ccco2)nn1C(=O)c1ccc(Cl)cc1 ?
miR-21 FLuc: -8%; Rango-impB inh: 0.9%; Rango dissoc inh: 2%; GLA inh pH 4.5: 1

What do the screens show for `CCOC(=O)C1(CC2CCCCO2)CCN(S(=O)(=O)c2cc(C)cs2)CC1` (stereo not given)?
miR-21 FLuc: -1%; Rango-impB inh: 7.3%; Rango dissoc inh: 9%; GLA inh pH 4.5: 0

What do the screens show for `CC(C)(C)NC(=O)CN(C(=O)c1snc(C(=O)NC2CCCCC2)c1N)c1ccc(F)cc1`?
miR-21 FLuc: -1%; Rango-impB inh: inconclusive; Rango dissoc inh: inconclusive

How did CCN1CCN(Cc2cc(=O)oc3ccc(C)cc23)CC1 do in these assays?
miR-21 FLuc: -8%; Rango-impB inh: 2.2%; Rango dissoc inh: 21%; GLA inh pH 4.5: 5

What do the screens show for `CCOCCCN(C(=O)Cn1nnc(-c2ccc(C)o2)n1)C(C(=O)NCC1CCCO1)c1ccc(F)cc1` (stereo not given)?
miR-21 FLuc: 1%; Rango-impB inh: -1.7%; Rango dissoc inh: -3%; GLA inh pH 4.5: 10

How did Nc1nc(N)c2sc3nc(C(F)(F)F)cc(C(F)(F)F)c3c2n1 do in these assays?
miR-21 FLuc: -8%; Rango-impB inh: 13%; Rango dissoc inh: -3%; GLA inh pH 4.5: -10

What do the screens show for `O=C(C(=O)N1CCCC1CO)N1CCCC1CO` (stereo not given)?
miR-21 FLuc: -2%; Rango-impB inh: 0.2%; Rango dissoc inh: 2%; GLA inh pH 4.5: 2

What do the screens show for `Cc1cc(C)cc(CC(Cc2nc3ccccc3[nH]2)c2nc3ccccc3[nH]2)c1` (stereo not given)?
miR-21 FLuc: inconclusive; Rango-impB inh: -0.6%; Rango dissoc inh: 1%; GLA inh pH 4.5: -4

How did O=C(CCCCl)Nc1nc(-c2ccc3c(c2)OCCO3)cs1 do in these assays?
miR-21 FLuc: -43%; Rango-impB inh: -4.2%; Rango dissoc inh: -2%

What do the screens show for `CCOc1ccc(C(=O)NCC(=O)NNC(=O)CN(C)S(=O)(=O)c2ccc(Cl)cc2)cc1`?
Rango-impB inh: 1.8%; Rango dissoc inh: 3%

How did Cc1ccc(O)c(NC2=C(Cl)C(=O)N(Cc3ccccc3)C2=O)c1 do in these assays?
miR-21 FLuc: -1%; Rango-impB inh: 0.9%; Rango dissoc inh: -18%; GLA inh pH 4.5: -4

What do the screens show for `Cc1ccc(-n2nc(C)c(Sc3ccccc3[N+](=O)[O-])c2N)cc1`?
miR-21 FLuc: -2%; Rango-impB inh: -2.4%; Rango dissoc inh: 1%; GLA inh pH 4.5: -14

What do the screens show for `COc1ccccc1CCNC(=O)C(=O)NCC1OCCN1C(=O)c1ccc(Cl)cc1` (stereo not given)?
miR-21 FLuc: -2%; Rango-impB inh: -0.4%; Rango dissoc inh: 0%

3 records drawn at random from the list so far, as already listed:
How did Cc1ccc(O)c(NC2=C(Cl)C(=O)N(Cc3ccccc3)C2=O)c1 do in these assays?
miR-21 FLuc: -1%; Rango-impB inh: 0.9%; Rango dissoc inh: -18%; GLA inh pH 4.5: -4

How did Nc1nc(N)c2sc3nc(C(F)(F)F)cc(C(F)(F)F)c3c2n1 do in these assays?
miR-21 FLuc: -8%; Rango-impB inh: 13%; Rango dissoc inh: -3%; GLA inh pH 4.5: -10

What do the screens show for `COc1ccccc1CCNC(=O)C(=O)NCC1OCCN1C(=O)c1ccc(Cl)cc1` (stereo not given)?
miR-21 FLuc: -2%; Rango-impB inh: -0.4%; Rango dissoc inh: 0%

Additional records follow.
Results for CC1O[C@H](OC2C(COC3OC(CO)C(O)[C@H](O)C3O)OC(OC3CC[C@]4(C)C(CC[C@@]5(C)[C@@H]4C=C[C@]46OC[C@@]7(CCC(C)(C)C[C@H]74)C(O)C[C@@]56C)C3(C)C)C(O)C2O)C(O)C(O)C1O (stereo not given in full) ?
Rango-impB inh: 2.0%; Rango dissoc inh: 1%

How did COc1ccc(Nc2nc(C)nc3c2nnn3Cc2ccccc2)cc1OC do in these assays?
miR-21 FLuc: -1%; Rango-impB inh: inconclusive; Rango dissoc inh: -14%; GLA inh pH 4.5: 9

Results for CC(C)(C)c1ccc(SCCc2ccncc2)cc1 ?
miR-21 FLuc: -5%; Rango-impB inh: 0.3%; Rango dissoc inh: -4%

Results for CCOC(=O)Cc1csc(SCC(=O)Nc2nccs2)n1 ?
Rango-impB inh: 0.5%; Rango dissoc inh: -14%

What do the screens show for `CCOc1ccc(Br)cc1S(=O)(=O)Nc1ccc(NC(=O)c2ccccc2C)cc1`?
miR-21 FLuc: 10%; Rango-impB inh: -1.3%; Rango dissoc inh: -11%; GLA inh pH 4.5: 6

What do the screens show for `O=C(Nc1ccnn1C1CCN(Cc2ccccc2OCCO)CC1)c1cccc(F)c1`?
miR-21 FLuc: 0%; Rango-impB inh: -3.9%; Rango dissoc inh: 9%

What do the screens show for `Cc1nc(SCC(=O)NCCc2ccccc2)c2oc3ccccc3c2n1`?
miR-21 FLuc: -9%; Rango-impB inh: 0.1%; Rango dissoc inh: 12%; GLA inh pH 4.5: 9

Results for CC(=O)Nc1ccc(NC(=S)NC(=O)/C=C/c2ccc(Cl)cc2)cc1 ?
miR-21 FLuc: -1%; Rango-impB inh: 1.0%; Rango dissoc inh: 12%; GLA inh pH 4.5: 7

How did COc1ccc(S(=O)(=O)NCCCN2CCCC2=O)cc1OC do in these assays?
miR-21 FLuc: -4%; Rango-impB inh: 0.5%; Rango dissoc inh: 4%

Results for CCNC(=S)N/N=C/c1cn(Cc2ccccc2F)c2ccccc12 ?
miR-21 FLuc: -2%; Rango-impB inh: -3.3%; Rango dissoc inh: -7%; GLA inh pH 4.5: -3

What do the screens show for `Cc1ccc(NC(=O)CSc2nc(N)cc(=O)[nH]2)cc1S(=O)(=O)N1CCCCC1`?
Rango-impB inh: -4.4%; Rango dissoc inh: -13%

Results for O=C(O)c1cnc(-c2ccccc2)nc1Sc1ccc(Cl)cc1 ?
miR-21 FLuc: 1%; Rango-impB inh: 1.0%; Rango dissoc inh: 4%; GLA inh pH 4.5: -2

How did O=C(CC1CC2CCC1C2)NC1CCCCCCC1 (stereo not given) do in these assays?
miR-21 FLuc: -23%; Rango-impB inh: 0.0%; Rango dissoc inh: 6%

Results for CC1CCCN(C(=O)C2COc3ccccc3O2)C1 (stereo not given) ?
miR-21 FLuc: -11%; Rango-impB inh: 1.1%; Rango dissoc inh: 8%

Results for O=C(O)c1ccccc1NS(=O)(=O)c1ccc(N/N=C/c2cccc(O)c2O)c([N+](=O)[O-])c1 ?
Rango-impB inh: inconclusive; Rango dissoc inh: 23%

What do the screens show for `CO/N=C(\C)c1ncc(C(F)(F)F)cc1N1CCOCC1`?
miR-21 FLuc: 3%; Rango-impB inh: -3.3%; Rango dissoc inh: 11%; GLA inh pH 4.5: 5

What do the screens show for `COc1ccc(-c2cc(C(=O)NCc3cccnc3)no2)cc1`?
miR-21 FLuc: -41%; Rango-impB inh: 12%; Rango dissoc inh: -3%; GLA inh pH 4.5: -3

What do the screens show for `CN(C(=O)c1ccc(NC(=O)Cc2ccc(NC(=O)C3CCN(S(=O)(=O)c4cccc([N+](=O)[O-])c4)CC3)cc2)cc1)C1CCCC1`?
Rango-impB inh: 4.4%; Rango dissoc inh: 5%

What do the screens show for `COc1ccc(NC(=O)C2CCN(C(=O)c3ccccc3)CC2)c(OC)c1`?
miR-21 FLuc: 2%; Rango-impB inh: 0.6%; Rango dissoc inh: -9%; GLA inh pH 4.5: 1

What do the screens show for `Cc1cc(NC(=O)CCNS(=O)(=O)c2cc(Br)cnc2N)ccc1Br`?
miR-21 FLuc: 19%; Rango-impB inh: -2.0%; Rango dissoc inh: 12%; GLA inh pH 4.5: -4

How did CC(C)Cc1nc(Cl)c(C#N)c2c1CCC2 do in these assays?
miR-21 FLuc: -1%; Rango-impB inh: 5.0%; Rango dissoc inh: 14%; GLA inh pH 4.5: -1

What do the screens show for `CCCn1c(=O)c2ccccc2n2c(SCCOc3ccc(Cl)cc3)nnc12`?
miR-21 FLuc: 1%; Rango-impB inh: -1.9%; Rango dissoc inh: 1%; GLA inh pH 4.5: 3

How did O=C(CN(C(=O)c1csnn1)c1cccc(F)c1)NCc1ccc(F)cc1 do in these assays?
miR-21 FLuc: 0%; Rango-impB inh: 0.3%; Rango dissoc inh: 5%; GLA inh pH 4.5: 4

How did COc1ccc(N(CCN2C(=O)c3ccccc3C2=O)C(=O)c2cccc([N+](=O)[O-])c2)cc1 do in these assays?
miR-21 FLuc: 1%; Rango-impB inh: -1.7%; Rango dissoc inh: -3%; GLA inh pH 4.5: -3

What do the screens show for `CCOC(=O)c1ccc(N2CCN(c3ccc(F)cc3)CC2)c(NC(=O)Nc2cccc(OC)c2)c1`?
miR-21 FLuc: 8%&-11%; Rango-impB inh: -1.1%; Rango dissoc inh: 15%; GLA inh pH 4.5: -3

How did CCc1ccc(-c2nc(-c3ccncc3)no2)cc1 do in these assays?
miR-21 FLuc: -42%; Rango-impB inh: 0.4%; Rango dissoc inh: 2%; GLA inh pH 4.5: 5

How did Cc1ccc(OCc2nc(-c3ccc(-n4cccc4)cc3)no2)cc1C do in these assays?
miR-21 FLuc: -2%; Rango-impB inh: -2.0%; Rango dissoc inh: 4%; GLA inh pH 4.5: -3

What do the screens show for `NC(=O)CC1NC(=O)c2cc([N+](=O)[O-])cc(I)c2OCCC(C(N)=O)NC(=O)[C@@H]2CCCN2C1=O` (stereo not given in full)?
miR-21 FLuc: -7%; Rango-impB inh: 2.2%; Rango dissoc inh: 14%; GLA inh pH 4.5: 6

How did O=[N+]([O-])c1ccc(NCCNS(=O)(=O)c2ccccc2)c(C(F)(F)F)c1 do in these assays?
miR-21 FLuc: 9%; Rango-impB inh: 5.2%; Rango dissoc inh: -3%; GLA inh pH 4.5: -1

How did O=C(N/N=C/c1cccnc1)c1ccc(NC(=O)c2ccc(Cl)cc2)cc1 do in these assays?
miR-21 FLuc: 10%; Rango-impB inh: -0.3%; Rango dissoc inh: 1%

Results for CC(NC(=O)c1ccc(NC(=O)c2ccco2)cc1)c1ccccc1 (stereo not given) ?
miR-21 FLuc: -27%; Rango-impB inh: -0.3%; Rango dissoc inh: -10%

How did CCc1ccc(OCC(=O)Nc2ncc3c(n2)CC(C)(C)CC3=O)cc1 do in these assays?
miR-21 FLuc: -4%; Rango-impB inh: 9.6%; Rango dissoc inh: -10%; GLA inh pH 4.5: 3

Results for O=C(NCCCN1CCOCC1)c1cc(-c2ccccc2)nc2ccccc12 ?
Rango-impB inh: 0.2%; Rango dissoc inh: -4%

Results for CCCn1cc(S(=O)(=O)c2ccccc2)c(=O)c2cc(OCC)ccc21 ?
miR-21 FLuc: -8%; Rango-impB inh: 5.0%; Rango dissoc inh: -1%
